D2 agonist: agonists of human D2 dopamine receptor (beta-arrestin); AID 624465; activation, % (test concentration not listed); hit rate 0.084% among 360,000; P14416; DiscoveRx PathHunter D2 beta-arrestin, luminescence, 90 min; 100% = 57 uM dopamine signal; in the data active = activation above about 40%; inconclusive = about 15% to 40%; inactive = below about 15%; also: compound concentration not given in the record; the text of the record calls up to 30% inactive
Target sequence (P14416 whole entry, looked up): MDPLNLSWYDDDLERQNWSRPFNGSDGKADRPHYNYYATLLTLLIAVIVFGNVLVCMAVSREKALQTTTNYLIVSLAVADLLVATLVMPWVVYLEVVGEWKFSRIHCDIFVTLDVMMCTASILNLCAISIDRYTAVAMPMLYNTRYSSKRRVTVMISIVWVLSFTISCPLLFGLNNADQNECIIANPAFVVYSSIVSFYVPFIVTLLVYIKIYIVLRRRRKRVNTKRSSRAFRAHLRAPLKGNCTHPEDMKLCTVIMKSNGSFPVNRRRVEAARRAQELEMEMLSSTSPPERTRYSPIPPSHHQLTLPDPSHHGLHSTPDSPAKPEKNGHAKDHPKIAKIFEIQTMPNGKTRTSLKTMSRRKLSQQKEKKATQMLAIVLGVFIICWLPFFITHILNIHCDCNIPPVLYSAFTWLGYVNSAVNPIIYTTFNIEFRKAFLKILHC
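DiscoveRx PathHunter D2 beta-arrestin cells (2,100/well) attached overnight, then compound-stimulated 90 min at 37 C in HBSS/10 mM HEPES/0.1% Tween-20 buffer; beta-galactosidase complementation read by luminescence after 1 h at ambient temperature. Dopamine 57 uM final (EC100) as control.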
D2 PAM: potentiates the human D2 dopamine receptor allosterically; DiscoveRx D2 beta-arrestin cells, luminescence, 90 min; 100% = 57 uM dopamine signal; potentiation, % (concentration not given with the values); hit rate 0.23% among 360,000; active = potentiation of 50% or more; inconclusive = 30% to 50%; inactive = 30% or less;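 also: compound concentration not given in the record; tested on top of an EC20 dose of dopamine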
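PathHunter D2 cells, attached overnight at 37 deg C, received compound in DMSO plus dopamine at EC20 (50 nM final) for 90 min at 37 deg C. Beta-arrestin recruitment was read as luminescence after 1 h with detection reagent at ambient temperature.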
CtBP-E1A blk: blocks the CtBP interaction with E1A | AlphaScreen GST-E1A/His-CtBP binding, 1536-well; active compounds read low; control for the full effect not named in the record | hit rate 0.49% among 340,000 | activity change, % (no concentration beside the values); in the data active means activity change below about -65%; inconclusive means about -30% to -65%; inactive means above about -30%; also: % is scaled to controls: 0 for no effect and ±100 for the full control effect
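Protein mix (5X: 125 nM each GST-E1A, His-CtBP) was incubated with pinned compound 2 h at 37 deg C in dark, in 50 mM Tris pH 8.0 buffer with 300 mM NaCl. Glutathione donor and nickel acceptor beads followed; AlphaScreen signal read after 1 h.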
TRPV1 PAM: enhances activation of the human vanilloid receptor TRPV1 | Q8NER1 | TRPV1-expressing cells, Fluo-8 calcium influx, capsaicin EC20 potentiation; host cell line not named in the record; control for the full effect not named in the record | potentiation, % at 8.33 µM | hit rate 0.02% among 320,000; active means potentiation above 80%; inconclusive means 30% to 80%; inactive means below 30%; also: 0% is about no effect
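Fluo-8 calcium influx in TRPV1-expressing cells, kinetic read (ex 480/em 520 nm). Compound added and read 3 min for agonist activity, followed by capsaicin at EC20 final and 2 min further read for enhancement.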
PINK1 modulator: modulators of PINK1 expression | Potency, µM (top dose mostly 76.6 µM), inactives show at the highest dose activation (PINK1 increase), hits mostly activators | PINK1 immunofluorescence, high-content cytometry, 24 h | hit rate 0.2% among 410,000; active = well fitted activation curve with a large enough effect; inconclusive = small, poorly fitted or top-dose-only effect; inactive = flat fitted curve, though single readings scatter; cell line not stated here;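 also: potency is read from the fitted curve at half-maximal effect; % of control where 0% means no effect; nearly all actives have a fitted effect of over 65% in size; a mitochondrial uncoupler was the plate control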
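Fluorescence from anti-PINK1 antibody, together with nuclear and cell stains, was scanned on a laser-scanning cytometer. Before staining, stable-line cells were incubated 24 hours with compounds at 5 concentrations; primary antibody 12 h at 10 degrees C.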
Sfp PPTase inh: blocks B. subtilis Sfp PPTase activity; Q9F4F7; Biochemical Sfp PPTase activity, qHTS; Potency, µM, inactives show max response, negative = inhibition, most hits filed as inhibitors; hit rate 3.5% among 310,000; AID 1490; active = well fitted inhibition curve with a large enough effect; inconclusive = small, poorly fitted or top-dose-only effect, or another doubt; inactive = no such curve, though single readings can be large or run the other way;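 also: the enzyme is Sfp with the accession as filed and its product quenches rhodamine fluorescence; potency is read from the fitted curve at half-maximal effect; 0% = enzyme reaction without inhibitor and -100% = no enzyme wells; top concentration of the series not given in the record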
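Fluorescence-quenching assay: 15 nM Sfp-PPTase preincubated 15 min at room temperature with compound, then 5 uM rhodamine-CoA and 12.5 uM BHQ-2-labelled YbbR peptide added. Fluorescence (ex 525/em 598 nm) read at start and after 30 min; difference gives rate.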
Six1-Eya2 blk: Six1/Eya2 interaction inhibition; Q15475+O00167; AlphaScreen GST-Six1/His-Eya2 binding, biochemical; active compounds read low; control for the full effect not named in the record; activity change, % (concentration not given with the values); hit rate 0.56% among 360,000; AID 651725; in the data active = activity change below about -65%; inconclusive = about -30% to -65%; inactive = above about -30%; also: % is scaled to controls: 0 for no effect and ±100 for the full control effect
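AlphaScreen luminescence read after one hour at 37 °C in darkness. Pin-transferred compounds met GST-Six1 and His-Eya2 protein (5X stock 250 nM/500 nM) plus glutathione donor and Ni-chelate acceptor beads (5X, 50 ug/mL).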
Numbers without * were called inactive; ? = inconclusive; nt = no result given; [ ] = dose if it differs, or a comment.

Molecule	D2 agonist	D2 PAM	CtBP-E1A blk	TRPV1 PAM	PINK1 modulator	Sfp PPTase inh	Six1-Eya2 blk
Cc1nn(CC(=O)Nc2ccc3c(c2)CCC3)c(C)c1[N+](=O)[O-]	-1.7	-9	4	7	14%	nt	4
S=C(Nc1ccccc1Cl)N(Cc1ccccc1)Cc1ccccn1	-3.4	-2	5	132*	1.7%	-28%	-5
O=C(CC1C(=O)NCCN1C(=O)c1ccc(Cl)cc1)Nc1ccc(F)cc1 (stereo unspecified)	-2.2	9	-4	0	-2.4%	24%	8
O=C(Cc1nnc(NC(=O)Nc2ccccc2)s1)NCc1ccccc1	-0.7	0	7	0	-0.2%	-3%	1
CN(c1ccccc1)c1ccc(/C=C(/CCC(=O)O)c2nc3ccccc3s2)cc1[N+](=O)[O-]	-1.5	-11	-25	nt	0.2%	nt	?
COc1cccc([C@@H]2CC=C(C(=O)O)CN2S(=O)(=O)c2ccc(C)cc2)c1	-1.4	-13	nt	?	0.4%	nt	0
COc1cccc(OC)c1C(=O)NCc1ccco1	1.9	3	2	nt	1.2%	nt	-2
COc1ccc(CNC(=O)CCS(=O)(=O)c2cccc3nonc23)cc1	-1.1	5	0	1	0.4%	2%	5
COc1ccc(N(CC(=O)NCc2ccco2)C(=O)CNS(=O)(=O)c2ccc(Cl)cc2)cc1	-2.8	-9	-4	-43	-0.4%	7%	-19
CC(C)CCNC(=O)COc1ccc2c(c1)C(=O)CC(C)(C)O2	-2.0	2	-4	-11	0.3%	10%	11
CCn1cc(CN2CCC(C(=O)Nc3ccc(Oc4ccccc4F)cc3)CC2)c(C)n1	0.8	-6	1	-11	0.4%	-3%	4
Cn1c(SCC(=O)Nc2ccccc2-c2ccccc2)nnc1-c1ccco1	-0.7	-3	5	-12	-0.1%	-14%	6
COc1ccc(N(CC(=O)NC2CCCCC2)S(=O)(=O)c2c(C)[nH]c(=O)[nH]c2=O)cc1	-3.3	-3	2	?	0.3%	-4%	-4
CCCOc1ccc(S(=O)(=O)Nc2ccccn2)c2ccccc12	1.4	-4	-10	2	3.9%	15%	0
COc1ccccc1C(=O)NC(=S)NNC(=O)c1sc2ccccc2c1Cl	0.1	0	5	-17	13%	2%	2
Cc1cc(C)c2nc(NC(=O)C3CC(=O)N(Cc4ccco4)C3)sc2c1 (stereo unspecified)	-2.0	-6	?	10	-1.1%	0%	?
O=C(Nc1ccccc1-c1nc2ccccc2[nH]1)c1ccc(S(=O)(=O)N2CCCCC2)cc1	0.4	-1	5	-20	-3.1%[38.3 µM]	17%	5
CCOc1ncccc1C(=O)OCc1c(Cl)cccc1Cl	1.6	6	7	-26	1.6%	8%	25
CC(C)(C)n1nnnc1C(c1cccc(C#N)c1)N1CCN2CCCC2C1 (stereo unspecified)	0.1	-8	6	?	nt	4%	3
Cc1cccc(NS(=O)(=O)c2csc(C(N)=O)c2)c1C	-4.3	-7	0	-7	-1.2%	17%	2

Molecule	D2 agonist	D2 PAM	CtBP-E1A blk	TRPV1 PAM	PINK1 modulator	Sfp PPTase inh	Six1-Eya2 blk
COc1ccc(C(=O)N/C(=C\c2cccs2)C(=O)N2CCN(C)CC2)cc1OC	-1.7	-3	0	2	-1.6%	2%	13
CCOC(=O)C1=C(C)C2C3C(=O)N(c4ccc(C)cc4C)C(=O)C3C1(C)C1C(=O)N(c3ccc(C)cc3C)C(=O)C21 (stereo unspecified)	2.9	3	-2	6	4.9%	20%	-4
CCCn1c(N)c(C(=O)CSc2nc3ccccc3c(=O)n2Cc2ccccc2)c(=O)[nH]c1=O	-4.2	-4	-3	9	16%	?	-3
O=c1[nH][nH]cc1C=NCc1cccnc1	0.3	2	nt	7	1.8%	11%	-2
CC1C(=O)CC(c2ccccc2)NC1c1ccccc1 (stereo unspecified)	-2.5	-15	12	-2	nt	3%	9
CCC(=O)Nc1cccc(-c2nc3ncccc3o2)c1C	-2.6	1	2	-2	0.2%	10%	-4
O=C(Cc1cccs1)NCc1cccc(F)c1	-8.0	-5	nt	-3	1.1%	11%	-1
NC(=O)c1ccc(N2CCN(c3ccc(O)cc3)CC2)c([N+](=O)[O-])c1	-1.0	21	-15	17	-0.7%	32µM*	-7
NC(=O)COC(=O)c1ccc(Cl)c(S(=O)(=O)N(Cc2ccccc2)c2ccc(Cl)cc2)c1	1.4	-6	-4	-12	-2.3%	18%	-7
CCCc1[nH]nc2c1C1(CCOC1C)C(C#N)=C(N)O2 (stereo unspecified)	-2.9	3	0	?	-0.3%	17%	8
c1ccc2c(c1)CCN(C1=Nc3cccc4cccc1c34)C2	-5.7	-21	-27	-3	?	-1%	-20
Cc1ccc(NC(=O)C2CCCN(S(=O)(=O)c3cnc[nH]3)C2)cc1C (stereo unspecified)	0.4	-7	0	?	-1.3%	10%	11
COc1ccc(C2=NOC(C)(c3sc(-c4ccc(Cl)cc4)nc3C)C2)cc1 (stereo unspecified)	0.7	-36	0	nt	2.1%	nt	-1
O=C(Nc1cc(C(F)(F)F)cc(C(F)(F)F)c1)[C@H]1O[C@@H](n2ccc(=O)[nH]c2=O)[C@H](O)[C@@H]1O	4.6	2	1	nt	4.0%	nt	-4
COc1ccc(C(c2sc3nc(C)nn3c2O)N2CCN(CCO)CC2)cc1OC (stereo unspecified)	-0.8	-4	8	9	0.0%	16%	5
CN(C)CCCNC(=O)C(=O)Nc1ccc2c(c1)N(S(=O)(=O)c1cccs1)CCC2	0.0	-26	5	-8	1.4%	nt	0
Cc1cc(C(=O)NC2CCCCC2)on1	-2.1	-8	8	-19	0.0%	2%	2
CC1(C)CCc2cc(-c3ccn(S(=O)(=O)c4ccccc4Cl)n3)ccc2O1	2.1	-3	0	-7	0.4%	8%	-5
S=c1[nH]c2ccccc2n2cccc12	0.1	-2	0	5	-0.8%	11%	1
O=C(Cc1ccccc1[N+](=O)[O-])NC1CC2CCC1C2 (stereo unspecified)	0.1	-4	-4	-31	0.0%	10%	3

Full records as entered above:
Cc1ccc(NC(=O)C2CCCN(S(=O)(=O)c3cnc[nH]3)C2)cc1C (stereo unspecified) in the list: D2 agonist: 0.4; D2 PAM: -7; CtBP-E1A blk: 0; TRPV1 PAM: ?; PINK1 modulator: -1.3%; Sfp PPTase inh: 10%; Six1-Eya2 blk: 11
CCCn1c(N)c(C(=O)CSc2nc3ccccc3c(=O)n2Cc2ccccc2)c(=O)[nH]c1=O in the list: D2 agonist: -4.2; D2 PAM: -4; CtBP-E1A blk: -3; TRPV1 PAM: 9; PINK1 modulator: 16%; Sfp PPTase inh: ?; Six1-Eya2 blk: -3

(further entries)
Molecule	D2 agonist	D2 PAM	CtBP-E1A blk	TRPV1 PAM	PINK1 modulator	Sfp PPTase inh	Six1-Eya2 blk
COCCN(C(=S)Nc1ccc(C)cc1)C(C)c1ccco1 (stereo unspecified)	-1.6	-2	2	-4	-1.3%	24%	-2
Cc1ccc2c(C(=O)CSc3ccccc3)c(C)[nH]c2c1	-1.5	-13	2	0	2.7%	14%	-1
O=C(CSC1=NS(=O)(=O)c2ccccc2N1)Nc1cccc(F)c1	1.5	-3	16	10	-5.4%	nt	7
O=C(CNC(=O)c1ccco1)N=Nc1c(O)n(CCc2ccccc2)c2ccccc12	5.9	7	1	-1	0.9%	?	-4
COc1ccc(N(C(=O)c2ccco2)S(=O)(=O)c2cc(Cl)c(Cl)cc2Cl)cc1	-1.7	-11	-3	11	7.4%[38.3 µM]	11%	-1
Cc1nc2ccccc2c(=O)n1NC(=O)c1ccccc1[N+](=O)[O-]	0.5	-8	33	?	-0.8%	-5%	1
CN(Cc1ccccc1)CC(O)COc1ccc(CNCc2nccn2C)cc1 (stereo unspecified)	2.9	-15	nt	-1	0.2%	-14%	-15
CCC(C)(C)C1CCC2(CC1)NC(=O)N(CC(=O)NCCc1ccc(OC)c(OC)c1)C2=O (stereo unspecified)	-11	-14	-8	-3	-2.7%	nt	2
CN1CCC(N(C)S(=O)(=O)c2ccc(C(C)(C)C)cc2)CC1	-4.3	-23	nt	-15	0.6%	-2%	6
O=S(=O)(Nc1cccnc1)c1cccc(Cl)c1	-2.2	-1	7	-8	15%[38.3 µM]	17%	3
COc1ccc(S(=O)Cc2ccc(C(=O)N3CCN(C(=O)c4ccco4)CC3)o2)cc1 (stereo unspecified)	-2.5	2	-2	?	0.3%	9%	1
COc1ccc(CN2CC(C(=O)NCCCN3CCOCC3)CC2=O)cc1 (stereo unspecified)	0.9	-13	5	0	4.0%	29%	-3
O=C(COC(=O)c1ccc2c(c1)OCCO2)Nc1ccc(F)cc1	4.7	-12	-1	-33	0.4%	nt	6
O=C(Nc1cccc(S(=O)(=O)N2CCOCC2)c1)c1cn(-c2ccccc2)nc1-c1ccccc1	-2.3	-1	-7	-9	-2.0%	17%	-3
Cc1ccc(C(=O)NC2CC3CCC(C2)N3Cc2ccco2)cc1 (stereo unspecified)	-3.2	-36	-1	15	-0.5%	5%	4
O=C(CN(Cc1ccco1)C(=O)c1ccc([N+](=O)[O-])cc1)Nc1ccccc1C(F)(F)F	-0.3	7	nt	4	1.2%	nt	2
N#Cc1ccc(OCC(=O)NCC2COc3ccccc3O2)cc1 (stereo unspecified)	5.5	-6	8	-15	-0.2%	nt	4
CN(CC(=O)Nc1ccccc1Br)C(=O)CNC(=O)c1ccco1	0.0	13	6	1	-1.1%	nt	0
CC(=O)c1cccc(CN2CCN(CC(C)C)C(CCO)C2)c1 (stereo unspecified)	-3.1	-5	-10	9	1.0%	-11%	1
COc1ccc(C(=O)NC(C)(C)C)cc1S(=O)(=O)N1CCCC1	-1.2	-15	-4	-6	-2.4%	8%	4

Compound activity as filed in PubChem.

Rows are unselected (roughly 3.7% active in at least one column).
